VDR inhibitor = blocks the human vitamin D receptor; 400,000 tested, 0.93% active; VDR-SRC2-3 peptide fluorescence polarization, 2 h; P11473; Potency, µM, inactives show max response, negative = inhibition, actives largely listed as inhibitors; active means well fitted inhibition curve with a large enough effect; inconclusive means small, poorly fitted or top-dose-only effect, or another doubt; inactive means no such curve, though single readings can be large or run the other way; further: series mostly up to about 120 µM
Target sequence (P11473 whole entry, looked up): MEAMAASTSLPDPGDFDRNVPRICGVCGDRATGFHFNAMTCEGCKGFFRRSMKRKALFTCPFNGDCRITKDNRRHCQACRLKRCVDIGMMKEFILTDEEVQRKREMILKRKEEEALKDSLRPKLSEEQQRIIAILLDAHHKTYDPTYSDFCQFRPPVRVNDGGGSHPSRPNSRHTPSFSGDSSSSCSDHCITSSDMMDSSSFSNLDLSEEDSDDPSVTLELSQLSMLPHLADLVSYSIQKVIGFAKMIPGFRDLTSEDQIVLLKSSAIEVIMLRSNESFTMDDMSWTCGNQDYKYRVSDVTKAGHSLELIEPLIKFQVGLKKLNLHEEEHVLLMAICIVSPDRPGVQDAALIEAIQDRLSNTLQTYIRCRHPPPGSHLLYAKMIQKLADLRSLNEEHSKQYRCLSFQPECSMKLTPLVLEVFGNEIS
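Measured by FP: displacement of SRC2-3 coactivator peptide from VDR by library compounds, following a two-hour ambient incubation.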
* marks the source's active call; other numbers are inactive results; ? = inconclusive; & = joins results of further samples; [ ] = dose if it differs, or a comment. On the % scale 0 is the no-effect control and ±100 the full control effect; potency means the concentration at half of the fitted maximal effect.

VDR inhibitor	canonical_smiles
-10%	O=C(COc1c(Cl)cccc1Cl)NN1C(=O)CSC1=S
10%	CCn1cc(S(=O)(=O)c2ccc(OC)cc2)c(=O)c2cc(F)c(N3CCC(C)CC3)cc21
18%	COc1ccccc1C(=O)NCCC(=O)N(C)Cc1cccs1
-2%	C/C(=N\NC(=S)Nc1ccc(F)cc1)c1ccc2c(c1)OCCO2
4%	O=C(Nc1ccccc1)C(Cc1ccccc1)c1ccccc1 (stereo unspecified)
7%	Cn1c(=O)c2c(nc(CN3CCN(C(=O)c4ccco4)CC3)n2Cc2ccccc2F)n(C)c1=O
-25%	CC(C)(C)c1ccc(C(=O)NCCC(=O)NNC(=O)COc2ccc(F)cc2)cc1
-1%&-8%	NC(=O)CNCCC(c1ccccc1)c1ccccc1
11%	Fc1ccccc1CNC(=S)NC1CCCCC1
5%	COc1ccc(Cl)cc1NC(=O)c1cnc(SC)nc1-c1ccccc1
7%	O=C(C=NNc1ccccc1)c1ccccc1
25%	CCNCc1nc2cc(Cl)ccc2c(=O)[nH]1
-1%	CCOC(=O)C1=C(CC)Nc2ccccc2N=C1NC(=O)c1ccc(OC)c(S(=O)(=O)N2CCCCC2C)c1 (stereo unspecified)
-17%	O=C(O)CCC(=O)Nc1ccc(C(=O)OCC(=O)c2ccc(Cl)cc2Cl)cc1
0%	O=C(NCc1ccccc1Cl)c1cnc2n(c1=O)CCS2
-5%	COc1ccc(N2CCN(C(c3cccs3)C(C)NC(=O)c3ccco3)CC2)cc1 (stereo unspecified)
-9%	Cc1ccc(SCCC(=O)NCc2ccccn2)cc1
-15%	Cc1ccc(N=Cc2c(O)c3ccccc3oc2=O)c(C)c1
13%	O=C(CSc1ccc2nnc(CCNC(=O)c3ccc(F)cc3)n2n1)NCc1ccco1
-25%	COc1ccc(OC)c(-c2ccc(C(=O)O)o2)c1
-8%	O=C(Nc1cc(Cl)ccc1-n1cncn1)c1ccco1
3%	CN(C)CCN(C(=O)c1cccs1)c1nc2cc3c(cc2s1)OCCO3
-8%	CC1CCCCC1NC(=O)c1ccc(S(=O)(=O)NNC(=O)c2ccncc2)cc1 (stereo unspecified)
4%	CCN1CCN(c2ncc(C(=O)N3CCCc4ccccc43)c3ccccc23)CC1
-21%	COc1ccc(N2CCN(C(=O)COCC(=O)O)CC2)cc1
-17%	CC(OC(=O)C1CCN(S(=O)(=O)c2ccc(Cl)cc2)CC1)C(=O)NC1CCCCC1C (stereo unspecified)
1%	O=C(NCCN1CCOCC1)c1cc(-c2ccc(Cl)cc2)on1
-1%	CC(C)(C)NC(=O)C(c1cccs1)N(Cc1ccc(F)cc1)C(=O)c1csnn1 (stereo unspecified)
0%	Cc1ccc(NC(=O)CCN2C(=O)NC(C)(C)C2=O)cc1F
1%&1%	N[C@H](C(=O)O)[C@@H]1C[C@@H]1C(=O)O
-1%	O=C(COc1ccc(Cl)cc1Br)Nc1nnc(C2CC2)s1
-15%	Cc1cccnc1NC(=O)C1c2ccccc2Oc2ccccc21

Shown as a markdown table: part of the list above
| Compound | VDR inhibitor |
| --- | --- |
| O=C(NCc1ccccc1Cl)c1cnc2n(c1=O)CCS2 | 0% |
| COc1ccc(N2CCN(C(c3cccs3)C(C)NC(=O)c3ccco3)CC2)cc1 (stereo unspecified) | -5% |
| Cc1ccc(SCCC(=O)NCc2ccccn2)cc1 | -9% |
| Cc1ccc(N=Cc2c(O)c3ccccc3oc2=O)c(C)c1 | -15% |
| O=C(CSc1ccc2nnc(CCNC(=O)c3ccc(F)cc3)n2n1)NCc1ccco1 | 13% |
| COc1ccc(OC)c(-c2ccc(C(=O)O)o2)c1 | -25% |
| O=C(Nc1cc(Cl)ccc1-n1cncn1)c1ccco1 | -8% |
| CN(C)CCN(C(=O)c1cccs1)c1nc2cc3c(cc2s1)OCCO3 | 3% |
| CC1CCCCC1NC(=O)c1ccc(S(=O)(=O)NNC(=O)c2ccncc2)cc1 (stereo unspecified) | -8% |
| CCN1CCN(c2ncc(C(=O)N3CCCc4ccccc43)c3ccccc23)CC1 | 4% |
| COc1ccc(N2CCN(C(=O)COCC(=O)O)CC2)cc1 | -21% |
| CC(OC(=O)C1CCN(S(=O)(=O)c2ccc(Cl)cc2)CC1)C(=O)NC1CCCCC1C (stereo unspecified) | -17% |
| O=C(NCCN1CCOCC1)c1cc(-c2ccc(Cl)cc2)on1 | 1% |
| CC(C)(C)NC(=O)C(c1cccs1)N(Cc1ccc(F)cc1)C(=O)c1csnn1 (stereo unspecified) | -1% |
| Cc1ccc(NC(=O)CCN2C(=O)NC(C)(C)C2=O)cc1F | 0% |
| N[C@H](C(=O)O)[C@@H]1C[C@@H]1C(=O)O | 1%&1% |
| O=C(COc1ccc(Cl)cc1Br)Nc1nnc(C2CC2)s1 | -1% |
| Cc1cccnc1NC(=O)C1c2ccccc2Oc2ccccc21 | -15% |

(further entries)
VDR inhibitor	canonical_smiles
-7%	CN(Cc1ccccc1F)C(=O)c1cccc(NC(=O)CC2SC(N3CCCCC3)=NC2=O)c1 (stereo unspecified)
4%	CCC(C)(C)n1nnnc1CN(Cc1cccs1)Cc1cc2cc(OC)ccc2[nH]c1=O
-20%	CC(NCC(O)COC1CCC(C(C)(C)C)CC1)c1ccccc1 (stereo unspecified)
11%	CCCCn1c(N)c(N(CCOC)C(=O)C2CC(=O)N(Cc3ccco3)C2)c(=O)[nH]c1=O (stereo unspecified)
9%	CCN(CC)CCN1C(=O)C(=O)/C(=C(/O)c2cnn(-c3ccccc3)c2C)C1c1cccnc1 (stereo unspecified)
5µM*	COC(=O)c1cc(C)nc(Sc2ccccc2N)n1
-2%	OCCN1CCN(c2ncnc3c2cnn3-c2cccc(Cl)c2)CC1
13%	CCOc1cc(CNC(=O)NC2COc3ccccc3C2)cc(OCC)c1OCC (stereo unspecified)
-5%	CCOc1ccccc1NC(=O)CNC(=O)Cc1ccccc1
-17%	O=C(Cn1ncc(Cl)c(Cl)c1=O)N1CCN(Cc2ccccc2)CC1
-2%	CCOc1cc(CNn2cnnc2)ccc1OCC(=O)NC1CCCCC1
13%	CN(C)c1ccc(CNC(=O)CN2C(=O)CCn3nc(-c4cn(C)c5ccccc45)cc32)cc1
-10%	CC(C)=CCc1c(O)cc2c(=O)c3ccc(O)cc3oc2c1O
-1%	O=C(O)c1cc2ccccc2c(=O)s1
-18%	CN1CCN(C(=O)c2cccc(NS(=O)(=O)c3ccc(Br)cc3)c2)CC1
-9%	Cc1onc(-c2c(Cl)cccc2Cl)c1C(=O)c1ccccc1
-7%	Oc1ccccc1-n1c(-c2ccccc2)ccc1-c1ccccc1
18%	O=C(CCc1ccc(O)c(O)c1)NNC(=S)Nc1ccc(Br)cc1Cl
-4%	CC(OC(=O)c1oc2ccccc2c1CSC1CCCCC1)C(=O)NC(N)=O (stereo unspecified)
1%	COc1ccc(N(CC(=O)NCC2CCCO2)S(=O)(=O)c2ccccc2)cc1OC (stereo unspecified)
-4%	CC(C)c1cc(/C=C(\C#N)C(=O)NCCCc2ccccc2)cc(C(C)C)c1O
-9%	CCC(C)C(NC(=O)c1ccccc1NC(=O)c1ccco1)C(=O)O (stereo unspecified)
-1%	COc1ccc2c(c1)O[C@@H](c1ccc3c(c1)OCO3)[C@H](OC(=O)NCCOc1ccccc1)C2=O
-27%	CCC(C)N=C1Sc2nc3ccc(C)cc3cc2CN1CCOC (stereo unspecified)
4%	Nc1ccc(/C=C/c2ccc3ncccc3c2)cc1
-18%	CCCc1nn(C)c(C(=O)Nc2cccc(Cl)c2)c1Cl
-5%	Cn1c(=O)[nH]c(=O)c2c1nc1n2CCN1Cc1ccccc1
24%	NCCCCCCCCCCNS(=O)(=O)c1cccc2c(Cl)cccc12
-14%	Cc1cc(NC(=O)c2ccccc2)no1
-5%	COc1ccc(Cl)cc1C(=O)OCC(=O)N(C)CC(=O)Nc1ccc(F)cc1
1%	Cc1[nH]n2c(=O)c3c(nc2c1-c1ccc(Cl)cc1)CCC3
8%	O=C(COc1ccc2c(c1)OCO2)Nc1cccc(F)c1
10%	COc1ccc(-n2c(/C=C/c3cccc(C(F)(F)F)c3)nc3ccccc3c2=O)cc1Cl
18%	N#Cc1c[nH]n2c(=O)cc(Cc3ccccc3)nc12
-11%	CCCCn1cc(S(=O)(=O)c2ccccc2)c(=O)c2cc(C)ccc21
-1%	COc1ccc(N2CCN(c3csc4ccc(Cl)cc4c3=O)CC2)cc1
-12%	CCC1CCCCN1C(=O)CSc1nc2c(c(=O)n1C)SC(C)C2 (stereo unspecified)
15%	O=S(=O)(NCC(c1cccnc1)N1CCN(c2ccccc2)CC1)c1cccs1 (stereo unspecified)
-1%	C/C(=N\NC(=O)c1c(Cl)c(C)nn1C)c1cccc(NC(=O)C2CCCC2)c1
1%	Nc1c(Cl)ncnc1NCCO
?	COc1ccc(-n2c(SCC(=O)C(C)(C)C)nc3ccsc3c2=O)cc1
-22%	CCn1c(SCC(=O)Nc2ccc(OC)c(OC)c2)nc2c(c1=O)SCC2
-8%	Cc1ccc(CSc2ncnc3c2cnn3-c2ccc(C)cc2)cc1
-1%	O=C1CC(c2ccco2)Cc2c1cnn2-c1nc2ccccc2s1 (stereo unspecified)
6%	O=C(CCc1ccccc1)N=C1SC2CS(=O)(=O)CC2N1c1cccc(F)c1 (stereo unspecified)
24%	Oc1ccccc1C1=NOC(O)(C(F)F)C1 (stereo unspecified)
12%	O=S(=O)(NCc1ccccc1)c1cnc[nH]1
0%	CN(C(=O)COC(=O)c1cc2c(s1)CCCCC2)c1ccccc1
32%[activator]	O=[N+]([O-])c1ccc(-n2cnc3ccccc32)c([N+](=O)[O-])c1
-12%	CC1Cc2cccc3c(O)c(C(=O)c4nn[nH]n4)c(=O)n1c23 (stereo unspecified)
-17%	CCCCC#Cc1cncc(C(=O)NN)c1
3%	CCN1C(=NCc2ccc(OC)cc2)N[C@@H](c2ccccc2)[C@H](C(=O)OC)[C@H]1C
17%	Cc1cc(C)c(Cn2c(=O)n(-c3ccccc3Cl)c(=O)c3c(C)c(C(=O)N(C)C)sc32)c(C)c1
-1%	Cc1ccc(NC(=O)C(=O)NCC(c2cccnc2)N2CCN(C)CC2)cc1C (stereo unspecified)
-18%	NC(=S)N/N=C/c1ccccc1
-13%	Cc1cccc(N2CCN(C(=O)Cn3cccc3)CC2)c1C

(more compounds)
VDR inhibitor	canonical_smiles
-20%	CC1Cc2cc(/C=C3/SC(N4CCC(C(N)=O)CC4)=NC3=O)ccc2O1 (stereo unspecified)
?	COc1cc(NS(=O)(=O)c2ccc(NC(=S)NC(=O)c3sc4cc(F)ccc4c3Cl)cc2)nc(OC)n1
2%	Cc1ccc(SCCC(=O)NC(C)C)cc1
-17%	CCCc1cc(=O)oc2cc(O[C@@H]3O[C@H](CO)[C@@H](O)[C@H](O)[C@H]3O)ccc12
11%	Cc1ccc(F)cc1NC(=O)Cn1c(=O)nc(-c2ccccc2F)c2cc(Cl)ccc21
-7%	O=C(CSc1nc2[nH]ncc2c(=O)[nH]1)Nc1ccccc1F
-13%	COc1ccccc1Nc1nc(NCc2ccco2)nc(N)c1[N+](=O)[O-]
0%	COc1cc(OC)c(N(C)C(=O)Nc2cn(CC(C)C)c(=O)c3ccccc23)cc1Cl
-2%	CCOC(=O)C1CCN(C=Nc2cc(C)on2)CC1
7%	O=C(CSc1nnc(-c2cccs2)n1-c1ccccc1)Nc1ccccc1
17%	Cc1cccc(C(=O)N2CCCN(C(=O)c3cccc(C)c3)CC2)c1
4%	S=C(Nc1cccnc1)N1CCc2ccccc21
-3%	Cc1cccc(OCc2nnc(SCC(=O)N3CCCC3)n2C)c1
-8%	CN1CCN(c2ccc(NC(=O)c3cccs3)cc2)CC1
6%	O=C(Oc1c(-c2ccccc2)c(=O)n2c3c(cccc13)CC2)c1ccccc1
24%	CCOCc1nnc(NC(=O)C2CC(=O)N(C3CCCC3)C2)s1 (stereo unspecified)
-19%	O=S(=O)(O)c1nc2ccccc2[nH]1
4%&-4%	CCC(Oc1ccccc1)C(=O)NC1C(=O)N2C1SC(C)(C)C2C(=O)O (stereo unspecified)
3%	O=C(O)C1CCCCC1C(=O)NCc1ccccn1 (stereo unspecified)
-10%	CCCCNC(=O)N(c1c(N)n(Cc2ccccc2)c(=O)[nH]c1=O)C1CCCC1
-10%	Clc1ccc(-c2nnc(SCc3nc4ccccc4[nH]3)o2)c(Cl)c1
1%	Cc1cc2c3c(c1)C1(C(=O)N3C(C)(C)CC2C)C(C#N)=C(N)OC2=C1C(=O)CC(C)(C)C2 (stereo unspecified)
5%	COc1cc(C)ccc1N(CCCN1C(=O)c2cccc3cccc(c23)C1=O)C(=O)c1cccs1
2%	CCSc1nnnn1-c1cccc(C(=O)O)c1
?	CCCOC(=O)N1CCN(/[N+]([O-])=N/Oc2ccc([N+](=O)[O-])cc2[N+](=O)[O-])CC1
-5%	O=C(O)CC1COc2ccccc2N1C(=O)c1ccccc1Cl (stereo unspecified)
-7%	CN(CCCC(=O)Nc1ccccc1F)S(=O)(=O)c1ccc(F)cc1
6%	Cc1[nH]n2c(=O)c3c(nc2c1-c1ccccc1)CCCC3
6%	COc1ccc(-c2nnc(-c3ccc(Br)o3)o2)cc1OC
7%	NC(C(=O)O)c1nn[nH]n1 (stereo unspecified)
22%	CCOc1ccccc1OCCn1nc2ccccc2n1
22%	CCOc1ccc(NC(=O)/C(C#N)=C\c2ccc(N3CCCC3)c(C)c2)cc1
3%	COc1ccc(CCNC2=C(Cl)C(=O)N(CCc3ccccc3)C2=O)cc1OC
9%	CCOC(=O)N1CCN(C(=O)C2CCC(=O)N(CCCN3CCCC3=O)C2)CC1 (stereo unspecified)
3%	COc1cc(OC)c(C(=O)N(CCc2ccccc2)Cc2ccccc2)cc1OC
17%	Cc1ccc(C(=O)Nc2cc(Cl)ccc2N2CCCCC2)s1
-17%	CC(Sc1nc2ccccc2s1)C(=O)c1c(N)n(C)c(=O)n(C)c1=O (stereo unspecified)

Screens deposited in PubChem BioAssay by National Center for Advancing Translational Sciences (NCATS).

An excerpt; count on the stated rates, not on these rows.
